Source: PubChem BioAssay
BasE inh – BasE siderophore biosynthesis inhibition | 84,000 tested, 0.1% active | inhibition, % (concentration not given with the values) | purified BasE, fluorescence polarization binding displacement;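 active = both replicates above 25% with normal brightness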;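 note: 0% = negative plate control signal and 100% = positive plate control signal; stock transfer was 100 nL into about 30 µL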
LANA-nucl inh – LANA-nucleosome interaction inhibition | 51,000 tested, 0.3% active | FITC-LANA1-23 / chicken nucleosome fluorescence polarization; stronger effect = lower value | AID 720717 | z-score (no concentration beside the values);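 active = both repeat wells score below -2 in polarization z-score versus plate sample wells, excluding overly bright wells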;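 note: 100 nL library stock added to about 30 µL; numbers are from one replicate; some results filed as inactive read as strong as hits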
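Material: Purified chicken nucleosomes with FITC-labelled LANA N-terminal peptide (1-23) | Reagent: 50 nM FITC-LANA1-23 probe | Medium: TEN-BT buffer, pH 7.5 | Times: 10–45 min incubation at room temperature | Detection: Fluorescence polarization | Replication: Duplicates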
* = called active by the depositor; / = not tested or not shown. A portion of the library; count on the stated rates, not on these rows.

SMILES	BasE inh	LANA-nucl inh
O=C(COc1nnc(SCCS(=O)(=O)c2ccc(F)cc2)n1C1CC1)c1ccc(F)cc1	0.5	/
CCCn1c2ccc(C)cc2c2nnc(SCCN(CC)CC)nc21	-0.8	-0.817
COc1ccc(N2C(=O)c3ccccc3NC23CCCC3)cc1	0.1	/
CC1CN(C(=O)C(C)N(C)Cc2nc3ccccc3c(=O)[nH]2)CC(C)O1 (configuration not stated)	-2.8	/
C/C(Nc1ccc(Br)cc1)=C(/C#N)C(N)=O	1.4	0.07
CC1=C(C#N)C(c2cccc(O)c2)C2=C(CC(c3ccccc3)CC2=O)N1 (configuration not stated)	2.6	-0.271
COC(=O)C1Cc2ccccc2CN1Cc1c(C)n(C)n(-c2ccccc2)c1=O (configuration not stated)	2.3	/
N#Cc1c(-c2ccccc2)cc(-c2ccccc2)nc1N1CCOCC1	2.0	0.252
CNS(=O)(=O)c1cccc(C(=O)OCC(=O)N2CCCc3ccccc32)c1	-0.6	/
CCN1C(=O)C(=Cc2ccc(N(C)C)cc2)C(=O)N(CC)C1=S	1.9	/
COc1cc2c(cc1OC)C(c1ccc(Cl)cc1)=NCC2	-1.8	/
COc1ccc(C(O)c2nccc3cc(OC)c(OC)cc23)cc1OC (configuration not stated)	-2.0	0.767
COc1ccc(C2CC(=O)c3cnc(NCCc4ccccc4)nc3C2)cc1 (configuration not stated)	-0.5	/
Cc1cc(OC(C)C(=O)N(Cc2ccco2)Cc2ccco2)ccc1Cl (configuration not stated)	-1.1	1.21
NC(=O)Nc1ccc(C(=O)Nc2ccc3c(c2)CCC3)cc1	-0.7	/
CC1SC(c2ccc(C(C)C)cc2)N(C)C1=O (configuration not stated)	3.3	/
O=C1NC(c2ccco2)Nc2sc3c(c21)CCN(Cc1ccccc1)C3 (configuration not stated)	1.1	0.648
CN1CCc2c(sc3[nH]c(=S)n(-c4ccccc4)c(=O)c23)C1	-1.5	-0.585
Cn1c(CNc2cccc(Cl)c2)nnc1SCC(=O)OC1CCCCC1	3.8	-0.474
Cc1cccc(NC(=O)CN(c2cccc(C(F)(F)F)c2)S(C)(=O)=O)c1	-0.6	1.34
O=C(NNc1ccccc1)c1cc(-c2cccs2)nn1-c1ccccc1	-0.2	/
CCc1ccc(NC(=O)CN2C(=O)CSC2=O)cc1	1.7	0.37
CCOC(=O)c1c(C)[n+]([O-])c2ccc3c(non3O)c12	2.3	0.123
COC(=O)c1c(N)c(C#N)c2n1CCCC2	-0.5	-0.121
Cc1[nH]c2ccccc2c1C(=O)C(C)N1CCN(c2ncc(C(F)(F)F)cc2Cl)CC1 (configuration not stated)	-2.6	/

Other entries
SMILES	BasE inh	LANA-nucl inh
C#CC(CC)(CC)NC(=O)c1ccccc1Br	1.3	/
O=C(Cn1nnc(N2CCOCC2)n1)c1ccc(Cl)cc1	-0.2	0.389
Cc1ccccc1OCC(O)CN(Cc1ccccc1)Cc1ccco1 (configuration not stated)	-2.5	/
Cc1ccc(-c2ccc(CCC(=O)O)n2C(C)C)cc1	4.9	0.0525
Cc1ccc(C2=NN(C(=O)CSc3nc4nc(C)cc(C)n4n3)C(c3ccco3)C2)cc1 (configuration not stated)	-1.0	/
CSc1sc(-c2ccon2)c(-c2ccco2)c1C#N	-0.7	/
CCCCN(C(=O)C1=CC=CN2CCS(=O)(=O)N=C12)c1ccccc1	-0.5	/
CC(C)COc1ccc(C(=O)Nc2ncn[nH]2)cc1	2.9	0.39
CCN(CCOC)c1nsnc1OC(C)C	-1.7	0.42
CS(=O)(=O)Nc1ccc(C(=O)CSc2ccc3c(c2)OCCO3)cc1	-2.2	/
CCOC(=O)c1nc2ccccc2s1	3.6	/
NNc1ncc(Cl)cc1Cl	-0.9	1.87
CC(C1CC1)N(CC(F)(F)F)C(=O)c1cnc2ccccc2n1 (configuration not stated)	1.6	/
CCOC(=O)/C(C#N)=C\c1ccc(N(C)C)cc1	-7.2	/
CCOC(=O)Nc1nc2c(ccc3ccccc32)s1	2.1	/
CN(C)C(CN=C1NS(=O)(=O)c2ccccc21)c1ccccc1 (configuration not stated)	-1.9	/
CCc1nc(-n2nnc3cc(C)c(C)cc32)c2c3c(sc2n1)CCCC3	-0.3	/
COc1ccccc1C(C)NC(=O)c1cccc(OC(F)F)c1 (configuration not stated)	0.5	/
Cc1cc(C)nc(N2CCN(c3ccccn3)CC2)n1	1.6	0.311
Cc1ccc(S(=O)(=O)N2CCN(Cc3cc(=O)n4ccccc4n3)CC2)c(C)c1	3.6	/
COC(=O)c1sc(C(C)(C)C)cc1CS(=O)(=O)c1cc(C)c(Cl)cc1C	0.8	/
COc1cccc(C(=O)Nc2cnn(CCCC(=O)O)c2)c1	-0.8	0.737
CN(Cc1ccc(-c2ccc(Br)cc2)o1)C(=O)c1cccs1	2.4	/
O=C(NCc1cccc(Cl)c1)c1ccc(CS(=O)Cc2ccc(Cl)cc2)o1 (configuration not stated)	-0.5	-0.792
COc1ccc2c(c1)C(=O)N(c1ccc(C)cc1C)C(=O)/C2=C/N1CCOCC1	0.4	/

Next section
SMILES	BasE inh	LANA-nucl inh
Cc1cc(C)c2c(C)c(C(=O)NN)sc2n1	1.9	/
Cc1ccnc2nc(NC(=O)c3cccnc3)nn12	1.9	0.395
c1ccc(CCN2CN=C(Nc3nc4ccccc4o3)NC2)cc1	1.9	-0.416
CC(C)(C)C(=O)NC(Cc1c[nH]c2ccccc12)C(=O)O (configuration not stated)	-0.1	0.222
CCCN(CCC)C(=O)Cn1c(=O)n(CCC(=O)NCc2ccco2)c(=O)c2sccc21	0.7	-1.55
CC(=O)Nc1cc2ccccc2cc1C(=O)O	-0.3	/
CC(C(=O)NC(=O)NC1CCCCC1)N1CCN(S(=O)(=O)c2cc(Br)ccc2Br)CC1 (configuration not stated)	0.8	/
CCOc1ccc(C(=O)Nc2cccc(-c3ccc(N4CCOCC4)nn3)c2)cc1OCC	-1.6	1.5
CCn1c(=O)cc(O)c2ccccc21	0.0	/
O=C1CCCc2cc(S(=O)(=O)N3CCC(C(=O)N4CCOCC4)CC3)ccc2N1	0.1	/
CCn1c(=O)n(CC)c2cc(S(=O)(=O)NC(C)C)ccc21	1.7	-0.627
COc1ccc(C(=O)NCC(=O)N2CCc3ccccc3C2)cc1	-1.0	/
O=C(OCc1csc(Nc2ccccc2)n1)c1cc(NS(=O)(=O)c2cccs2)ccc1O	1.3	/
O=C(Cn1cnc2c(oc3ccccc32)c1=O)N1CCCSC1=Nc1ccccc1Cl	-0.3	/
NS(=O)(=O)c1ccc(NC(=O)CN2C(=O)SC(=C3CCCCC3)C2=O)cc1	-2.0	/
O=c1cc(O)c2sc3nc(-c4ccco4)cc(C(F)(F)F)c3c2[nH]1	4.4	-1.03
Cc1ccccc1-c1nc(CN2CCC(C(=O)NC3CCCCC3)CC2)c(C)o1	-1.5	0.167
Cn1c(=NC(=O)CSc2nnc(-c3ccccc3)o2)sc2ccccc21	-4.3	/
Cc1ccc(C(C(=O)NC2CCCC2)N(C(=O)Cn2nnc3ccccc32)c2cnc3ccccc3c2)o1 (configuration not stated)	-0.8	-0.171
CN(C)c1ccc(/C=N/OC(=O)NC2CCCCC2)cc1	-1.9	1.78
Cc1nnc2c3cc(-c4ccccc4)sc3ncn12	-1.1	/
C/C(=C/C(=O)O)C(=O)Nc1nc(-c2cccs2)cs1	8.6	-0.0925
O=c1c(CCc2ccccc2)nnc2c3ccccc3ncn12	4.6	/
CN1/C(=C\C=Nc2ccccc2N)C(C)(C)c2ccccc21	-12.0	/
CC1(C)Cc2ccccc2/C(=C/C(=O)N2CCOCC2)N1	1.4	0.502

(cont.)
SMILES	BasE inh	LANA-nucl inh
COc1cc(C(=O)N[C@H](C(=O)O)C(C)C)cc(OC)c1OC	1.1	/
O=C(CCN1CCCC1)Nc1nc(-c2ccc(Cl)cc2)cs1	/	-0.749
FC(F)(F)c1cccnc1SCc1ccc(Cl)cc1	2.5	/
Cc1ccc2c(c1)CCCN2CC(=O)N(c1ccccc1)C1CCCCC1	-3.9	/
O=C(Nc1ccccc1C(=O)OC1CCCCC1=O)c1ccco1 (configuration not stated)	2.0	/
COCc1c(C(=O)NCc2cccs2)oc2ccccc12	1.2	/
CC1CCC2(CC1)NC(=O)N(CN(C)Cc1cccs1)C2=O (configuration not stated)	2.5	/
CC(CC(=O)OCc1ncc(-c2ccccc2)o1)c1ccccc1 (configuration not stated)	-4.3	/
NC(=S)N/N=C/c1cccc(C(F)(F)F)c1	1.6	-0.908
CC1=NCCNC(C)=C1N1CCOCC1	-0.4	/
C/C(CC(C)C)=N\Nc1ccc(Cl)c(C(=O)O)c1	2.0	/
CC(=O)N(CCN(C)C)c1nc2cc3c(cc2s1)OCO3	-1.6	-0.446
CCCCOc1ccc(CN(C)C)cc1CN(C)C	-0.2	0.44
CC(=NC1CCCCC1)c1sc2ccccc2c1O	1.0	/
CC1CN(C2=NC(=O)/C(=C/c3ccccc3)S2)CC(C)O1 (configuration not stated)	-0.1	/
CN(C)c1sc(C(=O)c2ccccc2)cc1-c1ccccc1	/	1.26
CCCCCNc1nc(C(C)C)c2c(c1C#N)CC(C)(C)OC2	2.2	-0.247
CN(CC(=O)Nc1ccc(N2CCOCC2)cc1)Cc1cc(=O)n2ccsc2n1	2.3	/
CCOc1ccccc1N/C=C/C(=O)C(C)(C)C	-2.5	0.269
Cc1cc(N2CCN(C)CC2)ccc1NC(=O)CNC(=O)C12CC3CC(CC(C3)C1)C2	1.9	/
O=C1c2ccccc2-c2onc3ccc(N4CCOCC4)c1c23	11.0	-0.358
CNC(=O)c1cccc(Oc2ccccc2)c1	-3.1	0.66
O=C(CSc1ccccn1)NC1CCCC1	-0.4	/
COc1ccc(C(C(=O)NC2CCCC2)N(Cc2ccco2)C(=O)c2ccco2)cc1 (configuration not stated)	-0.6	-0.637
CC(C)(C)NC(=O)NC(=O)CN1CCC(Cc2ccccc2)CC1	2.9	/

Following part
SMILES	BasE inh	LANA-nucl inh
CC(=O)N(CC(O)CN(C(C)=O)c1c(I)c(C(=O)NCC(O)CO)c(I)c(C(=O)NCC(O)CO)c1I)c1c(I)c(C(=O)NCC(O)CO)c(I)c(C(=O)NCC(O)CO)c1I (configuration not stated)	0.6	-0.759
O=C1c2ccc(F)cc2C(=O)N1CCO	1.4	-0.431
Nc1c(-c2nnnn2-c2ccccc2)cnc2ccccc12	-1.3	0.418
Cc1nnc(C)n1/N=C/C=C/c1ccccc1	0.7	0.564
CC(=O)NCCn1c(SCc2cc(F)ccc2F)nc2ccccc2c1=O	0.8	0.131
O=c1c2ccccc2n2c(-c3ccsc3)nnc2n1CCc1ccccc1	2.2	-1.36
O=c1c(=O)n(Cc2cccc(F)c2)ccn1Cc1ccccc1	0.1	0.093
CN1C(=O)C(C)(C)c2cc(S(=O)(=O)N(C)Cc3ccccc3)ccc21	2.8	1.34
CC(=O)NC1CC2CCC(C1)N2Cc1ccc(C)cc1 (configuration not stated)	-0.6	-0.0275
CCc1nc2ccccc2n1Cc1cccc(S(=O)(=O)N2CCOCC2)c1	-2.6	/
O=C(Nc1ccc(S(=O)C(F)(F)F)cc1)c1ccccn1 (configuration not stated)	2.3	/
CCN(CC)CC#CC1(O)CCCCC1	-1.9	-2.25
O=C1NC(=O)C(Cc2ccccc2)N1 (configuration not stated)	1.8	/
CN(Cc1nc(-c2ccccc2)no1)C(=O)c1ccccc1	-1.9	0.066
O=c1[nH]ccc2c(OCc3ccccn3)cccc12	4.2	0.479
O=C1C=C(Nc2ccccc2)C(=O)c2ccccc21	0.7	0.14
CN(CCOc1ccc(Cl)cc1)c1nn(C)c(=O)n(C)c1=O	0.9	/
Cc1nsc(N)c1C(=O)OCc1c(F)cccc1Cl	-3.7	/
COc1ccc(-c2noc(CSc3nc4ccc(C)cc4[nH]3)n2)c(OC)c1	-1.8	0.355
Cc1cc(C)n(C(=O)CCC(=O)O)n1	1.4	/
O=S(=O)(c1ccc(NCc2ccc3c(c2)OCO3)nc1)N1CCCC1	1.3	/
COC(=O)c1[nH]c2ccccc2c1I	/	-1.81
COc1ccc2oc(=O)c(S(=O)(=O)c3ccccc3)cc2c1	-1.8	0.213
Cc1ccc(CN(C)CC(=O)NCCc2ccc(S(N)(=O)=O)cc2)cc1	-1.2	/
CCCCCC(=O)Nc1ccc(N2CCN(c3ccc(C(F)(F)F)cn3)CC2)nc1	3.3	-1.94
